KCNQ2 inh = KCNQ2 potassium channel inhibitors, primary screen, cell-based, CHO-K1, FluxOR thallium flux, B-score (AID 2156); O88943; 20 min; hits give low values; only compounds with negative scores are shown here; some inactives read as strong as hits; B-score at 10 µM; hit rate 1.1% among 310,000;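 active = fluorescence ratio B-score at most minus 3 library SDs, with starting brightness B-score within 2 library SDs, cut at about -5.5 in these data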
Target sequence (O88943 whole entry, looked up): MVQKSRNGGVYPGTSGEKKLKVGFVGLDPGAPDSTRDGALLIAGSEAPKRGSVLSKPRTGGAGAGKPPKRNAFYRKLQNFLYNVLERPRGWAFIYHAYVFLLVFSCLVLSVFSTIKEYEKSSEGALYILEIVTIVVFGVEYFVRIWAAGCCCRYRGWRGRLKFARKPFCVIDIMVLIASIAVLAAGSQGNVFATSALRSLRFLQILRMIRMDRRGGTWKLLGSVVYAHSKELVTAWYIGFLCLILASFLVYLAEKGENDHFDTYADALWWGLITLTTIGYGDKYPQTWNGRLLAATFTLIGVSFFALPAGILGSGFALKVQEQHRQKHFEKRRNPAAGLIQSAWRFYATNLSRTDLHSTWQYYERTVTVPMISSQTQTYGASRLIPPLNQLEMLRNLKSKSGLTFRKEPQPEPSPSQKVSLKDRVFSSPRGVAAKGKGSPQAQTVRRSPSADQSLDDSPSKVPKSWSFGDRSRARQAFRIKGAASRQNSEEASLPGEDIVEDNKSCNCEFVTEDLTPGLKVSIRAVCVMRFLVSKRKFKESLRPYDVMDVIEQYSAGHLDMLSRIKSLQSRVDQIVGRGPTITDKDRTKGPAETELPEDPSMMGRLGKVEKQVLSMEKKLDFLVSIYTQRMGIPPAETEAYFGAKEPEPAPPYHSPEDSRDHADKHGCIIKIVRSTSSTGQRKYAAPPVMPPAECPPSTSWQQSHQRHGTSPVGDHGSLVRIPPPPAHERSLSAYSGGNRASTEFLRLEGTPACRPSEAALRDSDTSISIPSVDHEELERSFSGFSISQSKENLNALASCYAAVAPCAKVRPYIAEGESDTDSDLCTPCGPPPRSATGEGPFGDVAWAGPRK
KCNQ2 inh baseline = second read-out of KCNQ2 inh, no call of its own (marks repeat the call); B-score; measured here: initial fluorescence intensity artifact check;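 brightness before thallium and not channel activity; 0 = typical well and far values either way flag optical interference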
Active calls of the source: *; i = inactive. Not all compounds are listed. The share of hits here may be higher or lower than overall.

SMILES	KCNQ2 inh	KCNQ2 inh baseline
CCN(CC)Cc1c(O)ccc2c(=O)c(-c3ccccc3OC)coc12	i	0.37
CCSS(=O)(=O)c1cccc2cccnc12	i	-2.6
Cc1ccc2c(CNCc3ccco3)cc(=O)oc2c1	i	-0.05
CCN(Cc1ccc(OC)c(COC)c1)CC1CCCN(CCc2cccc(F)c2)C1 (configuration not stated)	i	0.45
CCCn1c(SCC(=O)Nc2ccccc2N2CCOCC2)nc2c1c(=O)n(C)c(=O)n2C	i	-0.37
CCOC(=O)CNC(=O)CSc1nc(-c2ccc(C)cc2)ns1	i	1.4
COc1cc2cc(CN(CCO)S(=O)(=O)c3ccccc3)c(=O)[nH]c2cc1OC	i	-0.23
OCCC1CN(Cc2nc3ccccc3s2)CCN1CCc1ccccc1 (configuration not stated)	i	0.44
O=C(C1=C[C@H](c2ccc(C(F)(F)F)cc2)C[C@H](OCCCCO)O1)N1CCN(Cc2ccccc2)CC1	i	0.73
COCC1CCCCC1OS(N)(=O)=O (configuration not stated)	i	-0.67
Cc1ccc(NC(=O)CSc2nnc(-c3cccs3)o2)cc1S(=O)(=O)N(C)C	i	-0.08
CN(C(=O)CN(C)S(=O)(=O)c1ccc(F)cc1)c1c(N)n(Cc2ccccc2)c(=O)[nH]c1=O	i	1.7
Cc1cc2cc(CNC(=O)c3ccc(Br)o3)ccc2n1C	i	0.25
CC(=O)N1CCc2cc(S(=O)(=O)CCC(=O)N3CCN(c4ccccc4F)CC3)ccc21	i	2.4
Cc1nc(CS(=O)(=O)c2ccccc2)cc(Sc2ccc(Cl)cc2Cl)n1	i	1.1
Clc1ccc(/C=C/c2nc3ccccc3[nH]2)c(Cl)c1	i	-0.31
COc1cc(Cl)ccc1OCc1cc(C(=O)N2C[C@]3(C)C[C@H]2CC(C)(C)C3)no1	i	0.51
Cc1coc2cc3oc(=O)c(CCC(=O)NCCCn4ccnc4)c(C)c3cc12	i	2.4
C=CCN(CC=C)c1cnn(-c2nc3ccccc3[nH]2)c(=O)c1Cl	i	-1.2
O=C(CN1CCCCCC1)Nc1ccc(Cl)cn1	i	-0.62
CS(=O)(=O)N1CCN(c2ccc([N+](=O)[O-])c(NCCN3CCOCC3)c2)CC1	i	0.82
CCCS(=O)(=O)c1nc(S(=O)(=O)c2ccc(C)cc2)c(N2CCc3ccccc3C2)s1	i	0.12
CCCCSc1nc2sc3c(c2c(=O)n1-c1ccc(OC)cc1)CCN(C)C3	i	1.5
COc1ccc(-n2nnc3c(SCC(=O)Nc4ccccc4F)ncnc32)cc1	i	1.2
CC(C)c1ccc(C2C(C#N)=C(N)N3C(=C2C#N)Sc2ccccc23)cc1 (configuration not stated)	i	1.1
CN(c1cccc(NC(=O)CN(c2ccc(F)cc2)S(C)(=O)=O)c1)S(C)(=O)=O	i	1.1
Cc1ccc(-n2c(-c3cccnc3)n[nH]c2=S)c(C)c1	i	0.86
CCOCCc1nnc(NC(=O)C2CC(=O)N(CCc3ccc(F)cc3)C2)s1 (configuration not stated)	i	-1.7
O=C(COC(=O)c1ccc(Cl)c(S(=O)(=O)N2CCCCC2)c1)NCc1ccco1	i	3.5
O=C(Nc1ccc2nc(-c3ccco3)c(-c3ccco3)nc2c1)N1CCN(c2ccccn2)CC1	i	-1.9
CC1(C(=O)c2ccccc2)C2c3c(ccc4ccccc34)OC(=O)C21C(=O)N1CCOCC1 (configuration not stated)	-7.9*	2.5*
N#Cc1c(N)c(C(=O)c2ccc(Br)cc2)n2c1CCC2	i	-0.05
COc1ccc(C(C#N)(CC(=O)O)c2cnccn2)cc1OC (configuration not stated)	i	1.8
COc1cccc(CN2CC(O)=C(c3nc(-c4ccc(Cl)cc4)cs3)C2=N)c1	i	1.1
N#CC1=C(N)Oc2cc(Nc3ccccc3)ccc2C1c1ccncc1 (configuration not stated)	i	-1.8
Cc1c(/C=N/NC(N)=O)c2ccccn2c1C(=O)c1ccc(F)cc1	i	1.5
CCC(=O)Nc1nnc(SCC(=O)c2ccc3c(c2)Cc2ccccc2-3)s1	i	-1.3
COC(=O)c1cn(-c2ccccc2)nc1C(=O)OC	i	2.1
CCCCNC(=O)c1c[nH]c2ccc(S(=O)(=O)Nc3ccc(OCC)cc3)cc2c1=O	i	1.6
COc1ccc(N(C)S(=O)(=O)c2cccc(C(=O)OC(C(=O)Nc3cc(C)cc(C)c3)c3ccccc3)c2)cc1 (configuration not stated)	-5.7*	-0.41*
CCN1CCCC1CNC(=O)C1CCN(C(=O)c2cc3sccc3n2Cc2ccc(F)cc2)CC1 (configuration not stated)	i	1.3
Cc1ccc(-n2nnnc2SCC(=O)c2cc(C)n(-c3cc(C)on3)c2C)c(C)c1	-7.5*	0.11*
Cc1nnc(NC(=O)CSc2nc3c(c(=O)n(C)c(=O)n3C)n2C(C)C)s1	i	-1.2
COCC(C)N=C1NN=C(c2ccc(NC(C)=O)cc2)CS1 (configuration not stated)	i	0.01
O=C(NCc1ccccc1)c1cccc(COc2cccc(Cl)c2)c1	i	-3.6
O=c1oc2ccccc2cc1-c1csc(Cc2nc(-c3ccc(Br)cc3)cs2)n1	i	-1.8
Fc1cccc(Nc2nc(N3CCOCC3)nc(N3CCOCC3)n2)c1	i	0.03
Cn1c(=O)cc(OCCCC(=O)Nc2ccc3c(c2)OCCO3)c2ccccc21	i	0.07
COc1ccc(-c2nnn(CC(=O)Nc3sc4c(c3C#N)CCCC4)n2)cc1	i	-1.8
COc1ccc(Cl)cc1N(CC(=O)Nc1ccc2c(c1)OCCO2)S(C)(=O)=O	i	1.4
CCOC(=O)c1sc2nc(SCC(=O)N(CC)CC)n(CCCN3CCCC3=O)c(=O)c2c1C	i	0.81
COc1ccc(C(=O)OCCc2ccc(O)cc2)cc1	i	0.68
Cc1ccc(Cl)cc1N1CCN(S(C)(=O)=O)CC1	i	-1.5
CC(=O)Nc1ccc(S(=O)(=O)N2CCN(C(=O)c3ncoc3-c3ccccc3F)CC2)cc1	i	0.21
N#CC1(NC(=O)COC(=O)c2nccnc2N)CCCCC1	i	0.66
O=S(=O)(c1ccc(Cl)cc1)N1CCC(n2cnc3cc(C(F)(F)F)ccc32)CC1	i	0.13
COc1ccc(-c2nc(NC(=O)Cn3cnnn3)sc2C)cc1	i	-0.72
COc1cc(/C=C2/N=C(c3ccccc3F)OC2=O)cc(Cl)c1OS(C)(=O)=O	i	0.09
COc1ccc(CCNC(=O)c2cc(-c3ccncc3)nc3ccc(S(=O)(=O)N4CCOCC4)cc23)cc1OC	i	1.7
CCOc1ccc(N(CC(=O)N2CCCCCC2)S(=O)(=O)c2ccc(F)cc2)cc1	i	0.52

Among those listed so far, 10 have an aryl thioether with sulfur outside any ring.
SMILES	KCNQ2 inh	KCNQ2 inh baseline
CCCn1c(SCC(=O)Nc2ccccc2N2CCOCC2)nc2c1c(=O)n(C)c(=O)n2C	i	-0.37
CCOC(=O)CNC(=O)CSc1nc(-c2ccc(C)cc2)ns1	i	1.4
Cc1ccc(NC(=O)CSc2nnc(-c3cccs3)o2)cc1S(=O)(=O)N(C)C	i	-0.08
Cc1nc(CS(=O)(=O)c2ccccc2)cc(Sc2ccc(Cl)cc2Cl)n1	i	1.1
CCCCSc1nc2sc3c(c2c(=O)n1-c1ccc(OC)cc1)CCN(C)C3	i	1.5
COc1ccc(-n2nnc3c(SCC(=O)Nc4ccccc4F)ncnc32)cc1	i	1.2
CCC(=O)Nc1nnc(SCC(=O)c2ccc3c(c2)Cc2ccccc2-3)s1	i	-1.3
Cc1ccc(-n2nnnc2SCC(=O)c2cc(C)n(-c3cc(C)on3)c2C)c(C)c1	-7.5*	0.11*
Cc1nnc(NC(=O)CSc2nc3c(c(=O)n(C)c(=O)n3C)n2C(C)C)s1	i	-1.2
CCOC(=O)c1sc2nc(SCC(=O)N(CC)CC)n(CCCN3CCCC3=O)c(=O)c2c1C	i	0.81

Returning to the listing, starting two compounds before the break.
SMILES	KCNQ2 inh	KCNQ2 inh baseline
COc1ccc(CCNC(=O)c2cc(-c3ccncc3)nc3ccc(S(=O)(=O)N4CCOCC4)cc23)cc1OC	i	1.7
CCOc1ccc(N(CC(=O)N2CCCCCC2)S(=O)(=O)c2ccc(F)cc2)cc1	i	0.52
CCOC(=O)c1c(NC(=O)CSc2nnc(C)c(=O)[nH]2)sc(C)c1C	i	0.69
C[C@H]1CCC[C@@]2(O[C@H](CCO)C[C@H](O)[C@H]2O)O1	i	1.4
COC(=O)c1cc(O)c(OCc2ccccc2)c(O)c1	i	-0.71
COC(=O)C1=CN(Cc2ccc(OC)c(OC)c2)C=C(C(=O)OC)C1c1cccc(F)c1	i	-0.04
O=C(COC(=O)CN1C(=O)C2CC=CCC2C1=O)Nc1cc(C(F)(F)F)ccc1N1CCOCC1 (configuration not stated)	i	-0.48
COc1ccc(CNS(=O)(=O)c2ccc3c(c2)CC(C)N3C(=O)C2CC2)cc1 (configuration not stated)	i	-0.04
O=C1NCCN(Cc2c(F)cccc2Cl)C1CC(=O)N1CCCCO1 (configuration not stated)	i	0.54
COc1ccc(-c2cn[nH]c2-c2ccc(OCc3ccccc3)cc2O)cc1OC	i	-0.34
CNC(=O)CSc1nnc(-c2cccs2)o1	i	1.3
O=C1CCCCC1Oc1ccc2ccc(=O)oc2c1 (configuration not stated)	i	0.14
CC(=O)CCC(=O)N1CCCC(N2CCN(c3cccc(Cl)c3)CC2)C1 (configuration not stated)	i	-2.4
Nc1ccc(N2CCCCC2)c(S(=O)(=O)Nc2ccccc2Cl)c1	i	0.02
CN(CC(=O)NCc1ccc(F)cc1)Cc1ccc(Br)cc1	i	1.1
Cc1c(NC(=O)CCCCCN2C(=O)c3ccccc3C2=O)c(=O)n(-c2ccccc2)n1C	i	0.18
CC(C)N1CCc2c(sc(N)c2C#N)C1	i	12
COc1ccc2c(c1)CC(C1(O)C(=O)N(C)c3ccccc31)C2=O (configuration not stated)	i	-1.2
CCOC(=O)c1[nH]c2ccc(Cl)cc2c1NC(=O)/C=C/c1ccc2c(c1)OCO2	i	1.3
N#Cc1ccccc1NC(=O)CN1C(=O)NC2(CCCC2)C1=O	i	-1.6
C/C=C1\COC(C(=O)NCc2ccccc2)(C(F)(F)F)C=C1C=C(C)C (configuration not stated)	i	-2.7
CCNC(=S)NNC(=O)c1cccc(Br)c1	i	-1
OCCCNc1nc(-c2ccc(Cl)cc2)nc2ccccc12	i	1.9
COc1ccccc1NC(=O)CSc1nnnn1-c1ccc(F)cc1	i	-0.04
Cc1ccc(N=c2sc(C)c(C)n2C)cc1	i	-0.07
CC(C)Oc1cccc(C(=O)Nc2ccccc2N2CCOCC2)c1	i	0.27
CC1=CC2(O)OCCN(CCO)C2=CC1=O (configuration not stated)	i	-0.23
CCOCc1nnc(NC(=O)CCC2CCCCC2)s1	i	2.9
CCN(CC)c1ccc(/C=C/C(=O)C2C(=O)C=C(C)OC2=O)cc1 (configuration not stated)	i	71
O=C1c2ccccc2C(=O)N1CCCCN(C(=O)c1cc([N+](=O)[O-])cc([N+](=O)[O-])c1)c1ccc(Cl)cc1	i	1.6
CCN1C(=O)C(C(=O)c2ccccc2)SC1=S (configuration not stated)	i	-2.7
Cc1cc(C)cc(NS(=O)(=O)c2ccc(F)cc2)c1	i	0.36
CCCCC(=O)N1CC2(C)CN(C(=O)CCCC)CC(C)(C1)C2=O	i	-0.05
COc1ccc(NC(=O)Nc2ccc3nsnc3c2)cc1	i	1.7
O=c1c2c(nc3cc(-c4cccc(Cl)c4)[nH]n13)CCCC2	i	1.2
Cc1[nH]c(C)c(S(=O)(=O)NCc2ccc(F)cc2)c1C(=O)N1CCCC1	i	0.67
CCCCn1c(N)c(N(CCOC)C(=O)c2cc(-c3ccc(C)cc3)nc3ccccc23)c(=O)[nH]c1=O	i	-0.22
O=C(Nc1nccs1)c1ccc(S(=O)(=O)c2ccccc2)cc1	i	0.27
Cc1cc(O)c(C)c(O)c1/C=N/NC(=O)c1cccnc1	i	1.5
O=C(N/C(=C/c1ccc2c(c1)OCO2)C(=O)N1CCOCC1)c1cccs1	i	2.5
CC1=CC(C)(C)N(C(=O)CN2C(=O)c3ccccc3C2=O)c2ccccc21	i	1.1
CNC(=S)N(CCc1c(C)[nH]c2ccccc12)Cc1ccco1	i	-2
CCOC(=O)c1cc2c(ccn2-c2ccc(F)cc2)n1CC(=O)N1CCN(C(=O)c2ccco2)CC1	i	0.14
Cc1cc(C)nc(-n2nc(C)cc2NC(=O)c2ccc(S(=O)(=O)N3CCOCC3)cc2)n1	i	1
CCCCCn1c(Sc2nc3ccccc3s2)nc2c1c(=O)[nH]c(=O)n2C	i	-0.96
COCCn1c(SCC(=O)NC(=O)NC(C)C)nc2ccccc21	i	0.01
CCCCc1cc(=O)oc2c(CN(CC)CC)c(O)c(Cl)cc12	i	-1.9
CN(CCO)C(=O)c1cccc2c1-c1ccccc1C2=O	i	2.6
Cc1cc(-c2csc(NC(=O)c3ccc(C#N)cc3)n2)c(C)n1Cc1ccccc1	i	0.4
CC(/C=C1\SC(=O)N(CC(=O)Nc2cccc(O)c2)C1=O)=C\c1ccccc1	i	0.84
Cc1ccc(-c2cc(C(=O)Nc3cc(C)on3)c3ccccc3n2)cc1	i	-0.22
N#Cc1ccc(C23CC4(C2)[C@H](CN(P(=O)(c2ccccc2)c2ccccc2)[C@@H]4c2ccccc2)C3c2ccc(Cl)nc2)cc1 (some centres not stated)	i	0.4
O=[N+]([O-])c1cccc(-n2cccc2/C=N/Nc2nc(N3CCCCC3)nc(N3CCCCC3)n2)c1	i	-0.5
CCCCOc1ccc(S(=O)(=O)Nc2cc(OC)ccc2OC)cc1	i	0.08
O=C(CSc1nc2ccccc2[nH]1)c1ccc(Cl)s1	i	-0.01
CC(C)(C)c1ccc(S(=O)(=O)NCCOCC(F)(F)C(F)F)cc1	i	0.2
CC(C)CCCNc1nc(N2CCOCC2)nc(N2CCOCC2)n1	i	1.1
Cc1nc2ccccc2c(=O)n1C1CCCCCC1	i	-1.7
O=C(/C=C/c1ccc(-c2ccccc2)o1)c1ccccc1	i	0.35
